Compound activity deposited in PubChem by Johns Hopkins Ion Channel Center.
KCNQ2 block = KCNQ2 channel blockers in CHO-K1 cells – cell-based, FluxOR thallium flux, B-score, primary screen (AID 2156); O88943; 20 min; stronger effect = lower value; only compounds with negative scores are shown here; some inactives read as strong as hits; B-score at 10 µM; 310,000 compounds, 1.1% hits;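 active = fluorescence ratio B-score at most minus 3 library SDs, with starting brightness B-score within 2 library SDs, cut at about -5.5 in these data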
Target sequence (O88943 whole entry, looked up): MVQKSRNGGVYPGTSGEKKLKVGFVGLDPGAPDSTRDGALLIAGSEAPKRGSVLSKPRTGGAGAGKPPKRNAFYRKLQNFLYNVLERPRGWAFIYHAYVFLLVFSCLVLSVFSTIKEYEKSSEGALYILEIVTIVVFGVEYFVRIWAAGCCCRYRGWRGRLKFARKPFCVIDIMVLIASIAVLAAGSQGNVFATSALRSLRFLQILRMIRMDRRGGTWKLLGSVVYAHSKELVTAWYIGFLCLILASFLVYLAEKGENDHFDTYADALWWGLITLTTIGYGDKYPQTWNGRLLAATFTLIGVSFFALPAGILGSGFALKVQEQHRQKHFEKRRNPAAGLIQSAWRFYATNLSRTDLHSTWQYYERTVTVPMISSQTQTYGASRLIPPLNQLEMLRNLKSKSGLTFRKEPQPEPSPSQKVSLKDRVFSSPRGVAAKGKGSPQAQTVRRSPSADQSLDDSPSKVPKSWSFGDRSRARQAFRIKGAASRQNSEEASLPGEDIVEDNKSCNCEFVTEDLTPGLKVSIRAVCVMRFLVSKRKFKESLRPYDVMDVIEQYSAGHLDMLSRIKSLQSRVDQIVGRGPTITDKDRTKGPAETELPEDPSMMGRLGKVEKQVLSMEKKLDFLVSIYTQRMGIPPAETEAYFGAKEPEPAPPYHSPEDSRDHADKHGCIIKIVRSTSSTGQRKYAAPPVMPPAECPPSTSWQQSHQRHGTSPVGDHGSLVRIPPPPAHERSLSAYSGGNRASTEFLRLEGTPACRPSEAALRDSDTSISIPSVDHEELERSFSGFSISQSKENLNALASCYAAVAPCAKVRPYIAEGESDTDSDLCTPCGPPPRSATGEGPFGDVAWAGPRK
KCNQ2 block baseline = second read-out of KCNQ2 block, no call of its own (marks repeat the call); B-score; measured here: initial fluorescence intensity artifact check;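 brightness before thallium and not channel activity; 0 = typical well and far values either way flag optical interference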
Active calls of the source: *; i = inactive. These rows are one share of the data; count on the stated rates, not on these rows.

Second line of a record: KCNQ2 block | KCNQ2 block baseline
Cc1cc(Cl)nc(N)n1
    i | 1.3
Cc1c(C(=O)c2ccccc2)c2ccccc2n1C
    i | 0.05
COc1ccccc1N1CCN(Cc2c(F)cccc2Cl)CC1
    i | -0.15
Fc1cccc(F)c1CN1CCN(Cc2c(F)cccc2F)CC1
    i | -1.5
C=CCN1CC[C@@]2(C)c3cc(O)ccc3CC1[C@@H]2C
    i | 0.11
Cc1ccc(CN2C3CCCC2CC(NC(=S)NCc2ccccc2)C3)cc1 (stereo not given)
    i | 0.14
O=C1NC(=O)N(Cc2ccc(F)cc2)C(=O)/C1=C\c1ccc([N+](=O)[O-])s1
    i | 1.3
Cc1ccc(N2C(=O)NC(=O)C(CCc3ccccn3)(Cc3ccc(F)cc3)C2=O)cc1 (stereo not given)
    i | 1.3
C[C@H]1C/C=C/[C@H]2[C@H](O)[C@H](C)[C@@](C)(O)[C@H]3[C@H](Cc4ccccc4)NC(=O)[C@]32[C@H](O)/C=C/[C@](C)(O)C1
    i | 1.2
COc1ccccc1N=Nc1c(O)[nH]c(=S)[nH]c1=O
    i | 1
CN1C(=O)/C(=C\c2ccc(N3CCCCCC3)cc2)C(=O)NC1=S
    i | -0.63
Cc1ccc2c(c1)C1CN(C)CCC1N2C(=O)c1cccs1 (stereo not given)
    i | 0.62
O=C(c1cccc([N+](=O)[O-])c1)C12CN3CN(CN(C3)C1)C2
    i | -0.04
Cc1ccc(C2CN(C)CC2C(=O)c2ccc(F)cc2)cc1 (stereo not given)
    i | -0.45
C=CCn1c(O)c(C=NCCCOc2ccc(CC)cc2)c(=O)[nH]c1=S
    i | -0.18
CCCCCCC(Cl)(Cn1ccnc1)c1ccccc1 (stereo not given)
    i | 1.5
CNC(=O)Nc1ccc(C(=O)N/N=C\C23CC[C@@H](O)CC2(O)CC[C@@H]2[C@@H]3CCC3(C)C(C4=CC(=O)OC4)CCC23O)cc1 (stereo not given in full)
    i | 0.48
CCCCCn1c(=O)c(C(=O)NCc2ccccc2)c(O)c2ccccc21
    i | 1.1
Oc1ccc(/C=N/NP(=S)(c2ccccc2)c2ccccc2)c(O)c1O
    i | -0.06
COC(=O)C(O)(c1ccc(NC(=O)c2ccccc2)cc1)C(F)(F)F (stereo not given)
    i | -0.03
CCOP(=O)(/C=C(\Cl)c1ccccc1)C(O)c1ccc(F)cc1 (stereo not given)
    i | -0.34
CCCC(=O)Nc1cc(C(=O)N2CCC3(CC2)OCCO3)ccc1S(=O)(=O)c1ccc(C)cc1
    i | -0.66
CN(CC1COc2ccccc2O1)c1nc(-c2cccnc2)nc2ccccc12 (stereo not given)
    i | 0.34
CCCCCn1c(=O)c(C(=O)NCc2ccco2)c(O)c2ccccc21
    i | -0.53
O=C1NC(=O)N(Cc2cccs2)C(=O)/C1=C/c1ccc(N2CCOCC2)cc1
    i | 1.1
COc1ccc(CN2CC=C(c3ccc(F)cc3)CC2)cc1Br
    i | 0.08
CCOP(=S)(OCC)SCC(=O)NC(C)(CC)C(=O)O (stereo not given)
    i | 0.5
CCCCC(=O)N/N=C/c1c(O)n(C2CC2)c(=S)[nH]c1=O
    i | -0.64
CCOP(=O)(C#CC(C)(C)C)C1(O)CCCCC1 (stereo not given)
    i | 0.71
CCOC(=O)c1c(-n2c(C)cc(/C=C3/C(=O)NC(=O)N(CC)C3=O)c2C)sc2c1CCCC2
    i | 1.6
O=c1c2ccccc2nc(-c2ccco2)n1-c1ccccc1
    i | 1.2
O=C(Cn1c(NCCCl)nc2ccccc21)c1ccc(Br)cc1
    i | -0.54
Cc1cc(C)c2c(c1)-c1cc(C)nn1C(c1cccnc1)N2 (stereo not given)
    i | -0.97
CCC(CC)N1CCN(Cc2nc3ccccc3c(=O)n2-c2ccc(F)cc2)CC1
    i | 0.61
CCOc1ccc(N2C(=O)NC(=O)/C(=C\c3ccc(N4CCCCC4)o3)C2=O)cc1
    i | 4
NC(=S)c1cn(C2OC(CO)C(O)C2O)c2ncnc(N)c12 (stereo not given)
    i | -1.6
Nc1ccc(N=Nc2ccccc2)cc1
    i | -2.1
CN1CCC(c2c[nH]c3ccccc23)C1 (stereo not given)
    i | 0.06
COc1ccc(Cn2c(O)c(/C=N/NC(=O)c3ccccc3O)c(=O)[nH]c2=O)cc1
    i | -2.3
Clc1ccccc1N1CCN(Cc2ccc3c(c2)OCO3)CC1
    i | -1.7

Compounds above containing fluorine:
Second line of a record: KCNQ2 block | KCNQ2 block baseline
COc1ccccc1N1CCN(Cc2c(F)cccc2Cl)CC1
    i | -0.15
Fc1cccc(F)c1CN1CCN(Cc2c(F)cccc2F)CC1
    i | -1.5
O=C1NC(=O)N(Cc2ccc(F)cc2)C(=O)/C1=C\c1ccc([N+](=O)[O-])s1
    i | 1.3
Cc1ccc(N2C(=O)NC(=O)C(CCc3ccccn3)(Cc3ccc(F)cc3)C2=O)cc1 (stereo not given)
    i | 1.3
Cc1ccc(C2CN(C)CC2C(=O)c2ccc(F)cc2)cc1 (stereo not given)
    i | -0.45
COC(=O)C(O)(c1ccc(NC(=O)c2ccccc2)cc1)C(F)(F)F (stereo not given)
    i | -0.03
CCOP(=O)(/C=C(\Cl)c1ccccc1)C(O)c1ccc(F)cc1 (stereo not given)
    i | -0.34
COc1ccc(CN2CC=C(c3ccc(F)cc3)CC2)cc1Br
    i | 0.08
CCC(CC)N1CCN(Cc2nc3ccccc3c(=O)n2-c2ccc(F)cc2)CC1
    i | 0.61

Other results.
Second line of a record: KCNQ2 block | KCNQ2 block baseline
Cc1ccc(-c2ccc(=O)n(CCC(=O)N3CCC4(CC3)OCCO4)n2)cc1
    i | 1.6
O=C(N/N=C/C1C(=O)NC(=S)N(c2ccccc2)C1=O)c1cc(Br)c(O)c(Br)c1 (stereo not given)
    i | 0.99
CCC(CO)NC(=O)C1C=C2c3cccc4[nH]cc(c34)CC2N(C)C1 (stereo not given)
    i | 2
c1ccc(CN2CCN(Cc3ccc4ccccc4c3)CC2)cc1
    i | 0.82
O=C1NC(=S)N(c2ccccc2)C(=O)/C1=C/c1ccco1
    i | 1.1
COc1cc2c(cc1OC)CN(c1ccc([N+](=O)[O-])c(C(F)(F)F)c1)CC2
    i | -0.24
COC(=O)N(c1ccccc1)P(=O)(Oc1ccccc1)Oc1ccccc1
    i | -0.91
COc1ccc(CCNCc2cccn2C)cc1
    i | 0.97
CCCCn1c(O)c(C(C)=NCc2cc(OC)cc(OC)c2)c(=O)[nH]c1=O
    i | -0.05
Clc1cc(I)cc(Cl)c1NC1=NCCN1
    i | -0.61
O=c1[nH]c(=S)n(C2CCCCC2)c(O)c1/C=N/N1CCOCC1
    i | 1.1
O=[N+]([O-])c1cccc2c([As](=O)(O)O)cccc12
    i | 2.8
O=C(c1cc2cc(Cl)ccc2[nH]1)N1CCC2(CC1)OCCO2
    i | -0.05
CCCCCOc1ccc(C)cc1CN(CCCl)CCCl
    i | 0.64
CCOC(=O)C1=C(N)OC2=C(C(=O)CCC2)C12C(=O)Nc1ccccc12 (stereo not given)
    i | -0.47
Cc1ccc(-n2c(C)nc3cc(Cl)ccc3c2=O)nc1
    i | 1.5
CSc1ccc(C(=O)C2CCCN(Cc3cc4ccccc4[nH]3)C2)cc1 (stereo not given)
    i | -0.1
CC(=NCc1ccc2c(c1)OCO2)c1c(O)n(Cc2ccccc2)c(=O)[nH]c1=O
    i | -0.87
O=C(COc1ccccc1)NCCc1cnc[nH]1
    i | 0.02
O=C1CC(=O)N(c2cccc(Br)c2)C(=O)N1
    i | 0.19
Clc1ccc(COC(Cn2ccnc2)c2ccc(Cl)cc2Cl)c(Cl)c1 (stereo not given)
    -7.3* | -1.2*
CC(C)CC(=O)NC(Oc1ccc(Cl)cc1)C(Cl)(Cl)Cl (stereo not given)
    i | 0.04
CCc1ccc(NC(=O)CN2CC(c3ccccc3)CC2=O)cc1 (stereo not given)
    i | -2.2
C=Cn1ccnc1P(=S)(c1c(C)nn(-c2ccccc2)c1C)c1nccn1C=C
    i | -0.48
CC1(C)C(C(=O)N2CCN(C(=O)c3ccccc3)CC2)C1(C)C
    i | -1.2
CCN(CC)CCCN=Cc1c(O)n(CCc2ccc(OC)c(OC)c2)c(=O)[nH]c1=O
    i | -1.6
O=C1NC(=O)N(Cc2ccco2)C(=O)/C1=C\c1ccc(-c2ccc(F)cc2)o1
    i | -0.41
CCOP(=O)(OCC)C(NC(=O)c1cccc2ccccc12)C(Cl)(Cl)Cl (stereo not given)
    i | 0.95
O=C(O)c1ccc(/C=C/c2nc3ccccc3c(=O)n2-c2ccc(Br)cc2)cc1
    i | -1.1
Cc1onc(-c2c(Cl)cccc2Cl)c1/C(N)=N/OC(=O)N(C)C
    i | -0.58
CCc1ccc(NC(=O)C(C)OC(=O)c2c(C)nn(Cc3ccccc3)c2Cl)cc1 (stereo not given)
    i | 1.8
CN1CCN(CCOC2c3ccccc3CSc3ccc(Cl)cc32)CC1 (stereo not given)
    i | -0.4
COC(=O)C1=C(c2cccc(OC)c2OC)C[C@@H]2CC[C@H]1N2C(=O)NCC1CC1
    i | 2
CCN(CC)P(=O)(/C=C(\Cl)c1ccccc1)/C=C(\Cl)c1ccccc1
    -5.9* | -1.1*
CC(=O)OC1(Cc2ccccc2)CN2CCC1c1ccccc12 (stereo not given)
    i | 1.3
Fc1ccc2c(c1)nnn2C1CCN(Cc2ccccc2)CC1
    i | -2.2
N=C1C(c2ccccc2)=C(O)CN1Cc1ccco1
    i | 1.7
CC(C)OCC(O)CN1CC2C[C@@H](C1)Cn1c2cccc1=O (stereo not given in full)
    i | -1.3
COc1cc(C)c(CNCCc2c[nH]c3ccccc23)cc1C
    i | -1.2
CCCc1nc2ccc(Br)cc2c(=O)n1-c1ccc([N+](=O)[O-])c(C(F)(F)F)c1
    -6* | -0.45*
Cc1ccccc1-n1c(O)c(C(c2ccncc2)c2c(O)n(-c3ccccc3C)c(=O)[nH]c2=O)c(=O)[nH]c1=O
    i | 0.34
CC(C)(C)N1C(=O)NC(=O)/C(=C\c2ccc3c(c2)CCN3CCCCl)C1=O
    i | 1.6
Clc1ccc(CSC(Cn2ccnc2)c2ccc(Cl)cc2Cl)cc1 (stereo not given)
    i | 2
CCN1C(=O)C(=C2C=C(C)OC(C)=C2)C(=O)N(CC)C1=S
    i | 0.06
CCc1ccc(NP(=O)(Oc2ccccc2F)Oc2ccccc2F)cc1
    i | 0.01
CN(C)/C=C/C(=O)C(Cl)(Cl)Cl
    i | 0.44
CCCCCCCSc1cc(OC)c(CCN(C)C)cc1OC
    -7.7* | -0.08*
COC(=O)Cn1cc(/C=C2\C(=O)NC(=O)N(c3ccc(OC)cc3)C2=O)c2ccccc21
    i | 31
C#CC(CC)(CC)NC(=O)Nc1ccc(OCC)cc1
    i | -2.4
O=Cc1c(C(=O)O)n(Cc2ccc(Cl)cc2)c2ccccc12
    i | 0.03
CCN1CCC(N(C)C2CCCCC2)CC1
    i | -0.04
Cc1cccc(CN2CCCC(C(=O)c3ccc(C(F)(F)F)cc3)C2)n1 (stereo not given)
    i | -0.29
C=CCOC(=O)COc1cc(C)cc2oc(=O)c3c(c12)CCC3
    i | 1.4
COc1cccc(N2CCN(Cc3cccc(Cl)c3)CC2)c1
    i | -0.23
CCN(CC)CCN=C(C)c1c(O)n(-c2ccccc2OC)c(=O)[nH]c1=O
    i | -1.7
O=C(C(=O)N1CCOCC1)c1cn(Cc2c(F)cccc2Cl)c2ccccc12
    i | 1.1
Cc1cccn2c(=O)c3c(nc12)N1CCC(Cc2ccccc2)CC1C1(C3)C(=O)N(C)C(=O)N(C)C1=O (stereo not given)
    i | 3.8
Clc1ccc(C[n+]2c(-c3ccccc3)cc(-c3ccccc3)cc2-c2ccccc2)cc1
    -7.2* | -0.31*
COc1cccc(-n2c(CN3CCOCC3)nc3ccc([N+](=O)[O-])cc3c2=O)c1
    i | -0.36
CCN1CCN(Cc2nc3ccc([N+](=O)[O-])cc3c(=O)n2-c2ccccc2F)CC1
    i | 1.6

(listing goes on)
Second line of a record: KCNQ2 block | KCNQ2 block baseline
COc1ccc(N=C(C)c2c(O)n(C)c(=O)n(C)c2=O)c(OC)c1
    i | 0.02
Cc1ccccc1-c1nc(CS(=O)CC(=O)N2CCC3(CC2)OCCO3)c(C)o1 (stereo not given)
    i | 0.55
c1ccc2c(CN3CCCCC3)c[nH]c2c1
    i | 0.97
CCN1CCC2(CC1)NC(=O)c1ccccc1O2
    i | 0.39
ON1C2CCCCC2N(O)C1c1ccccc1F (stereo not given)
    i | -0.68
CN1CCN(c2nc(N(C)C)oc(=O)c2C#N)CC1
    i | -0.21
Cc1cc(OCC(=O)NCc2ccncc2)c2c3c(c(=O)oc2c1)CCC3
    i | 0.37
Cc1cc(C(=O)N2CCC3(CC2)OCCO3)cs1
    i | -1.7
Nc1c(C(=O)OCC2CCCO2)c2nc3ccccc3nc2n1Cc1cccs1 (stereo not given)
    i | 0.07
CCC(=NCc1cccnc1)c1c(O)n(-c2ccccc2)c(=O)[nH]c1=O
    i | 1.5
Fc1ccccc1CCNCc1cccc2ccccc12
    i | -0.28
CC(=NCc1ccco1)c1c(O)n(-c2ccccc2)c(=O)[nH]c1=O
    i | 0.06
Cc1nn(C2CCOC(C)(C)C2)c2c1C(c1ccc(OC(C)C)cc1)SCC(=O)N2 (stereo not given)
    i | -0.02
O=C(NC(=O)c1c(F)cccc1F)Nc1cc(Cl)c(F)c(Cl)c1F
    i | -0.97
NC(=O)CN1CC(c2ccccc2)CC1=O (stereo not given)
    i | 1.3
CCc1cccc(C)c1NC(=S)N1CC2CC(C1)c1cccc(=O)n1C2 (stereo not given)
    i | 3.6
